# HSD17B inhib – blocks hydroxysteroid 17-beta dehydrogenase activity; actives 7.6% (n = 75,000); recombinant HSD17B10, NADH fluorescence kinetic; many of its hits are not listed in these tables; Potency, µM (series often up to 57.1 µM), inactives show top-dose activity change, negative = inhibition, hits mostly inhibitors; AID 893; Q99714; active means well fitted inhibition curve with a large enough effect; inconclusive means small, poorly fitted or top-dose-only effect; inactive means no such curve, though single readings can be large or run the other way;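 further: the protocol describes HADH2 (HSD17B10) and not the HSD17B4 of the title; nearly all actives have a fitted effect of over 70% in size; most hits overshoot -100% by far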
#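 His-tagged E. coli-expressed HADH2 at 20 nM in 100 mM Tris-HCl pH 9.0 with 0.01 % Tween-20, preincubated 15 min with compound at room temperature. Reaction with 1 mM NAD+ and 90 uM beta-hydroxybutyryl coenzyme A; NADH fluorescence (360/450 nm) read kinetically over 4 min, last minus first point.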
# Starred values were filed as active, the others as inactive; ? = inconclusive; & = joins results of further samples; [ ] = dose if it differs, or a comment. On the % scale 0 is the no-effect control and ±100 the full control effect; potency means the concentration at half of the fitted maximal effect. The list is partial; count on the stated rates, not on these rows.
Molecule | HSD17B inhib
OC1CCN(Cc2cccc(Oc3ccccc3)c2)CC1 | 7.5%
CC(=O)N1CCC(N2CCN(c3ccccc3F)CC2)CC1 | 0.0%
CCCn1c(SCC(=O)c2cc(OC)ccc2OC)nnc1-c1ccco1 | ?
Cn1nnnc1SCC(=O)N1c2ccccc2CCc2ccccc21 | 2.1%
CCOC(=O)N1CCC(NC(=O)C2CCCN(C(=O)c3cc4sccc4n3C)C2)CC1 (stereo unspecified) | 3.9%
COCCn1c(SCc2ccccc2Cl)nc2c1c(=O)[nH]c(=O)n2C | 0.8%
CCCNS(=O)(=O)c1ccc(OCC(=O)N2CCC(C(=O)OCC)CC2)cc1 | 0.0%
CCOc1ccccc1N1CSC2=C(C#N)C(c3c(OC)ccc4ccccc34)CC(=O)N2C1 (stereo unspecified) | 15.8µM*
Cn1c(=O)[nH]c(=O)c2c1nc(Sc1nc3ccccc3s1)n2Cc1ccccc1 | -2.2%
CCOc1ccccc1Nc1nc2ccccc2n2cnnc12 | 25.1µM*
COc1ccc(NC(=O)N2CCN(c3cccc(C(F)(F)F)c3)CC2)cc1 | 1.1%
COc1ccccc1NC(=O)Cn1cnc2sc(C(=O)NCc3ccco3)c(C)c2c1=O | 11.2%
O=C1CC(N2CCC(c3nc4ccccc4o3)CC2)C(=O)N1Cc1cccs1 (stereo unspecified) | -0.8%
COc1cc2cc(C(c3nnnn3C3CCCC3)N(C)C3CCCCC3)c(=O)[nH]c2cc1OC (stereo unspecified) | ?
COc1ccc(Cl)c(N2CCN(CCCNC(=O)Nc3ccc(C)cc3)CC2)c1 | -9.8%
CNC(=O)[C@@H]1C[C@H]1[C@@H](NC(=O)OCc1ccccc1)c1ccccc1 | 5.9%
CCCCCNc1c(C(=O)OCC)c(=O)[nH]c2ccccc12 | 0.2%
CCN(CC)CCCNC(=O)C1CCN(C(=O)c2cc3sccc3n2Cc2ccc(F)cc2)CC1 | 1.3%
N#Cc1cccc(NC(=O)CSc2ccccc2)c1 | ?
CCCCn1c(SCC(=O)c2ccc(OC)cc2OC)nc2cc(S(N)(=O)=O)ccc21 | -27.1%
CCNC(=O)c1sc(-c2ccccc2)nc1C | -4.0%
c1cc(CNc2ccc3c(c2)OCO3)ccn1 | ?
CC(=O)c1oc2ccccc2c1NC(=O)COC(=O)c1ccc(-n2nc(C)cc2C)cc1 | -2.7%
COc1ccccc1N(CC(=O)Nc1ccc2c(c1)OCCO2)S(C)(=O)=O | 8.5%
CC(=O)c1c(C)[nH]c(C(=O)OCC(=O)Nc2cc(C(F)(F)F)ccc2N2CCOCC2)c1C | 0.9%
COc1cc(-c2nnc(-c3cccs3)o2)cc(OC)c1OC | ?
OCC1O[C@@H](OC2C(O)C(CO)O[C@@]2(CO)O[C@@H]2OC(CO)C(O)C(O)C2O)C(O)C(O)C1O (stereo partly specified) | 5.0%
O=C(CN1CCN(c2ccc(F)cc2)CC1)N1CCC(Cc2ccccc2)CC1 | 5.5%
CCOc1ccc(S(=O)(=O)Nc2ccccc2C(=O)NCC2CCCO2)cc1 (stereo unspecified) | 31.6µM*
Cc1noc(C)c1S(=O)(=O)N(CC(=O)N1CCCC1)c1ccc(C(C)C)cc1 | 1.7%
Cc1cc(NC(=O)COC(=O)COc2ccc(C(=O)c3ccccc3)cc2)no1 | 8.0%
CCCCC(c1nnnn1CS(=O)(=O)c1ccc(C)cc1)N1CCN(c2ccccc2)CC1 (stereo unspecified) | 5.5%
COc1cccc2cc(C(=O)NC3CC(C)(C)NC(C)(C)C3)c(=O)oc12 | ?
CCN1CCN(C(=O)Nc2cccc(C(F)(F)F)c2)CC1 | 0.6%
COc1ccc(C(NC(=O)C(C)(C)C)NC(=O)C(C)(C)C)cc1 | 2.1%
CCC1CCCCN1CCCNC(=O)Cn1nc(-c2ccc(C)cc2)ccc1=O (stereo unspecified) | ?
O=C(c1cnccn1)N1CCC2(CC1)CCN(c1ccncc1)CC2 | 1.5%
CC(=O)NCCNc1ncncc1-c1ccccc1C(F)(F)F | ?
CCOc1c(Br)cc(C2NS(=O)(=O)N=C3CCCCCN32)cc1OC (stereo unspecified) | 1.5%
Cc1onc(-c2ccccc2Cl)c1C(=O)Nc1ccc(OCC(=O)N2CCOCC2)cc1 | 2.2%
CCn1cnc2cc(NCc3nc4ccccc4n3C)ccc21 | 0.0%
COC(=O)CCN(C(=O)c1ccc2c(c1)OCO2)c1ccccn1 | ?
O=C1C[C@@H](O)[C@@H](O)[C@H]2[C@@H]3C(=O)N(Cc4ccc5c(c4)OCO5)C(=O)[C@@H]3CC[C@H]12 | 4.7%&4.8%[11.4 µM]
O=C(Nc1ccc2oc(=O)ccc2c1)c1cccnc1 | ?
O=C(OCn1nnc2ccccc2c1=O)c1ccc2ccccc2n1 | 11.2%
CC(C1OC(C)(C)C(O)C1O)C1CC[C@@]2(C)C3=CCC4C(C)(C)C(=O)CC[C@]4(C)C3CC[C@@]12C (stereo partly specified) | 3.5%
Cc1ccc(C)c(N2CCN(C(=O)C3CCN(S(=O)(=O)c4c(C)noc4C)CC3)CC2)c1 | 8.2%
COCCNC(=O)c1ccccc1NC(=O)COc1ccccc1 | -6.2%
COc1ccc2oc(C)c(NC(C)=O)c2c1 | 6.3%
COc1ccc(C(=O)c2oc3ccc(Br)cc3c2NC(C)=O)cc1 | -1.0%

# Other results:
Molecule | HSD17B inhib
CCOC(=O)c1oc2ccccc2c1NC(=O)C1CCCCC1 | ?
O=C(CN1CCC(n2nnc3cc(F)ccc32)CC1)NC1CCCCC1 | 12.4%
Cc1ccccc1-c1ccc2ncnc(N(C)C)c2c1 | 2.7%
CC(CCc1ccccc1)NC(=O)CN1CCOc2ccccc21 (stereo unspecified) | -1.4%
O=C(CCc1nc(-c2ccccc2F)no1)Nc1ccc(Oc2ccccc2)cc1 | -0.8%
COc1ccccc1NC(=O)C1CCCCN1S(=O)(=O)c1ccc(F)cc1 (stereo unspecified) | 3.7%
CCOC(=O)C1=C(C)Nc2nc(SCc3cccnc3)nn2C1c1ccc(OC)cc1 (stereo unspecified) | 19.9%
Cc1cc(C(=O)Nc2ccccc2C(F)(F)F)no1 | 2.1%
CCCCN1c2cc(C)c(O)cc2C(C(=O)OCC)C1C (stereo unspecified) | -4.0%
C=CCn1c(SCC(=O)Nc2ccc3c(c2)OCCO3)nnc1-c1ccccn1 | 5.7%
COc1ccc(C2=NCC(CSc3nnnn3C)S2)cc1 (stereo unspecified) | -5.6%
O=C(O)CCCC(=O)Nc1ccccc1C(=O)O | -27.7%
O=C(CN(Cc1ccco1)S(=O)(=O)c1cccs1)Nc1ccccc1C(F)(F)F | -2.9%
COC(=O)Cn1cnc2c(nnn2Cc2ccc(Cl)cc2)c1=O | 11.4%
COCCNC(=O)CN(c1cccc(OC)c1)S(=O)(=O)c1ccc(C)cc1 | -2.5%
Cc1ccc(-n2c(SCC(=O)NCc3cccs3)nnc2-c2ccoc2C)cc1 | -18.2%
CCN(CC)S(=O)(=O)c1ccc2c(c1)c(=O)c(C(=O)NCCCN(C)c1ccccc1)cn2C | -5.6%
Cc1c(C(=O)Nc2ccc(F)cc2)oc2ccc(S(=O)(=O)N3CCC4(CC3)OCCO4)cc12 | ?
CCCCOC(=O)c1ccc(NC(=O)c2ocnc2C)cc1 | -8.8%
CN(C)CCN(C)C(=O)c1ccc(-n2c(=O)c(=O)[nH]c3ccccc32)cc1 | -6.5%

# Overlap with the part before: five entries, then new ones.
Molecule | HSD17B inhib
Cc1ccc(-n2c(SCC(=O)NCc3cccs3)nnc2-c2ccoc2C)cc1 | -18.2%
CCN(CC)S(=O)(=O)c1ccc2c(c1)c(=O)c(C(=O)NCCCN(C)c1ccccc1)cn2C | -5.6%
Cc1c(C(=O)Nc2ccc(F)cc2)oc2ccc(S(=O)(=O)N3CCC4(CC3)OCCO4)cc12 | ?
CCCCOC(=O)c1ccc(NC(=O)c2ocnc2C)cc1 | -8.8%
CN(C)CCN(C)C(=O)c1ccc(-n2c(=O)c(=O)[nH]c3ccccc32)cc1 | -6.5%
COC(=O)c1ccccc1NC(=O)c1ccccc1NS(C)(=O)=O | 1.6%
COc1cccc(C(=O)N(c2ccc(OC)cc2OC)C2C=CS(=O)(=O)C2)c1 (stereo unspecified) | 4.0%
Cc1nc(=O)c(-c2ccccc2)c(C)n1-c1ccc(C(=O)O)cc1 | -5.5%
COc1ccccc1CCNC(=O)c1cnn2c(C(F)F)cc(C)nc12 | 0.2%
Cc1nnc(SCc2cccs2)[nH]c1=O | 1.4%
Cc1c(C#N)c2ncn(CCCN(C)C)c(=O)c2n1-c1ccccc1 | 3.5%
CCOC(=O)C1CCN(C(c2cccs2)c2sc3nc(C)nn3c2O)CC1 (stereo unspecified) | 6.4%
Cc1ccc(N2CC(C(=O)N3CCc4ccccc4C3)CC2=O)cc1 (stereo unspecified) | -0.6%
Cc1cc(N2CCC(C(=O)Nc3ccc(F)cc3)CC2)nc(-c2ccccc2)n1 | 3.3%
Cn1c(=O)cc(OCCCC(=O)Nc2cccnc2)c2ccccc21 | -11.4%
Cc1ccc(NC(=O)c2cc(S(=O)(=O)N3CCC4(CC3)OCCO4)ccc2F)cc1 | 5.0%
CC1Cc2ccccc2N1S(=O)(=O)c1cccc(C(=O)c2nccn2C)c1 (stereo unspecified) | -8.2%
CCc1cccc(CC)c1N(COC)C(=O)Cn1c(C(C)O)nc2ccccc21 (stereo unspecified) | 7.0%
O=C(NCCCN1CCCC1=O)c1cccnc1 | 16.1%
O=C(O)CSc1nnc(Cc2ccccc2)n1Cc1ccccc1 | 0.7%
CCOCC(=O)Nc1c(C(=O)Nc2ccc(OC)cc2OC)oc2ccccc12 | 2.51µM*
Cc1cc(N2CCN(C)CC2)nc2ccc(NC(=O)c3ccc(Br)o3)cc12 | -5.2%
Nc1cc(S(=O)(=O)O)cc2ccc(S(=O)(=O)O)cc12 | ?
CC1(C)CC(NC(=O)CC2CCCCC2)CC(C)(C)N1 | 6.9%
Cn1c(COc2ccccc2)nnc1SCC(=O)Nc1ccc(N2CCOCC2)c(Cl)c1 | 6.2%
CC1CCCCN1c1nc(-c2ccncc2)nc2ccccc12 (stereo unspecified) | -13.1%
CCCC1c2c(ccc3ccccc23)Oc2ccc3ccccc3c21 | -2.9%[11.4 µM]
CCOC(=O)N1CCC(NC(=O)CCC(=O)N2CC(C)Oc3ccc(Cl)cc32)CC1 (stereo unspecified) | 6.6%
COc1cc(OC)cc(-c2nnc(Nc3nc4c(F)cccc4s3)o2)c1 | 10µM*
O=C(CCCn1nnc(-c2cccnc2)n1)c1ccc(F)cc1 | -0.1%
CCOc1ccc(N2C(=O)CC(N3CCN(c4ccc(C(=O)c5ccncc5)cc4)CC3)C2=O)cc1 (stereo unspecified) | -28.4%
Cc1ccc(S(=O)(=O)N(Cc2ccc(F)cc2)Cc2ccco2)cc1 | 2.8%
Cc1cc2c(cc1C)NC(c1cccnc1)C1=C(CC(C)(C)CC1=O)N2 (stereo unspecified) | -9.6%
O=C(NCc1cc(F)cc2c1OCCO2)[C@H]1C[C@@H]1[C@H](NP(=O)(c1ccccc1)c1ccccc1)c1ccccc1 | 8.3%
Cc1ccc(Nc2oc(C)nc2C#N)cc1 | -3.8%

# 3 records picked at random from the list so far, as already listed:
Molecule | HSD17B inhib
CC1CCCCN1c1nc(-c2ccncc2)nc2ccccc12 (stereo unspecified) | -13.1%
CCCC1c2c(ccc3ccccc23)Oc2ccc3ccccc3c21 | -2.9%[11.4 µM]
Cc1ccc(S(=O)(=O)N(Cc2ccc(F)cc2)Cc2ccco2)cc1 | 2.8%

# Going on with the list:
Molecule | HSD17B inhib
Cc1ccc(CNC(=O)CN(C)S(=O)(=O)c2cccc3cccnc23)cc1 | 5.8%
CCOCCc1nnc(NC(=O)c2ccc(OC)c(OC)c2)s1 | -5.3%
O=C(Cn1nnc(-c2ccncc2)n1)N1CCc2ccccc21 | 0.3%
CCOC(=O)C1CCCN(C(=O)c2ccc(OCC)cc2)C1 (stereo unspecified) | 7.8%
CN(c1ccccc1)S(=O)(=O)c1cc(C(=O)N2CCN(c3ccccn3)CC2)ccc1Cl | -1.6%
Cc1nn(Cc2ccc(C(=O)NC3CCCCC3)o2)c(C)c1Br | -9.9%
COc1ccc(NC(=O)Cn2nnc(-c3ccccc3F)n2)cc1 | -0.3%
COC(=O)C1=C(C(=O)c2ccc(C)cc2)C(c2ccc(O)c(OC)c2)n2nnnc2N1 (stereo unspecified) | -2.6%
O=c1nc(C(F)(F)F)nc2ccccn12 | 4.7%
C=CCn1c(O)c(C(CC)=NCCN2CCOCC2)c(=O)[nH]c1=O | -6.0%
CCOC(=O)C1CCCN(Cc2ccc3c(c2)OCO3)C1 (stereo unspecified) | 14.0%
O=C(O)CC1Sc2ccccc2NC1=O (stereo unspecified) | -8.8%
N#C/C(=C(/N)Sc1ccc(N)cc1)c1ccccc1C(F)(F)F | -17.5%
O=C(NC1CCCCC1)N1CCC(c2nc3ccccc3[nH]2)CC1 | 0.2%
O=C(CN1CCOCC1)Nc1ccc(S(=O)(=O)N2CCCCCC2)cc1 | -4.5%
Cn1cc(Cl)c(C(=O)N(Cc2ccccc2)c2ccccn2)n1 | -4.8%
CC(C)[C@H](NC(=O)NCc1ccco1)C(=O)O | 20.4%
O=C(CSc1nc2cc(Cl)ccc2s1)NC(=O)NCc1ccco1 | ?
CC1CCCCC1NC(=O)c1ccc(CNc2c(N3CCCC3)c(=O)c2=O)cc1 (stereo unspecified) | -10.1%
CCn1c(SCC(=O)Nc2cccc(NC(=O)c3cccs3)c2)nnc1-c1ccncc1 | 5.8%
Cc1cccc(C)c1N1C(=O)c2ccccc2C1=O | 4.7%
